INS promoter inh: inhibitors of insulin promoter-driven GFP, primary screen, imaging, TRM-6 cells (human fetal islet line), eGFP reporter, cell count | reporter expression induced with tamoxifen | actives 0.9% (n = 130,000) | AID 1273, 2008 | inhibition, % at 2 µM;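 active means inhibition above the mean plus 3 SD, with well images judged a real hit on visual review, cut at about 60% in these data, passing the limit was not always enough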
GALR2 agonist: GALR2 receptor agonists, primary screen, cell-based | Galanin receptor type 2 (Homo sapiens), O43603 | GALR2-expressing cells, agonist activation read-out | activation, %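 (tested at 5 µM)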 | actives 0.48% (n = 140,000);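 active means above mean plus 3 SD of all compounds, about 5% in these data, not always enough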;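 further: 0% = vehicle buffer wells and 100% = reference agonist at full effect; tested in CHO reporter cells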
PKD1 inh: inhibitors of human PKD1 kinase, biochemical, fluorescence polarization; PKD1 kinase fluorescence polarization assay; inhibition, %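 (about 10 µM by stock and volumes)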; actives 0.056% (n = 200,000); AID 797, 2007;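 active means inhibition of 50% or more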;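 further: controls were vehicle for no effect and a reference inhibitor for full effect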
Target sequence (Q15139 whole entry, looked up): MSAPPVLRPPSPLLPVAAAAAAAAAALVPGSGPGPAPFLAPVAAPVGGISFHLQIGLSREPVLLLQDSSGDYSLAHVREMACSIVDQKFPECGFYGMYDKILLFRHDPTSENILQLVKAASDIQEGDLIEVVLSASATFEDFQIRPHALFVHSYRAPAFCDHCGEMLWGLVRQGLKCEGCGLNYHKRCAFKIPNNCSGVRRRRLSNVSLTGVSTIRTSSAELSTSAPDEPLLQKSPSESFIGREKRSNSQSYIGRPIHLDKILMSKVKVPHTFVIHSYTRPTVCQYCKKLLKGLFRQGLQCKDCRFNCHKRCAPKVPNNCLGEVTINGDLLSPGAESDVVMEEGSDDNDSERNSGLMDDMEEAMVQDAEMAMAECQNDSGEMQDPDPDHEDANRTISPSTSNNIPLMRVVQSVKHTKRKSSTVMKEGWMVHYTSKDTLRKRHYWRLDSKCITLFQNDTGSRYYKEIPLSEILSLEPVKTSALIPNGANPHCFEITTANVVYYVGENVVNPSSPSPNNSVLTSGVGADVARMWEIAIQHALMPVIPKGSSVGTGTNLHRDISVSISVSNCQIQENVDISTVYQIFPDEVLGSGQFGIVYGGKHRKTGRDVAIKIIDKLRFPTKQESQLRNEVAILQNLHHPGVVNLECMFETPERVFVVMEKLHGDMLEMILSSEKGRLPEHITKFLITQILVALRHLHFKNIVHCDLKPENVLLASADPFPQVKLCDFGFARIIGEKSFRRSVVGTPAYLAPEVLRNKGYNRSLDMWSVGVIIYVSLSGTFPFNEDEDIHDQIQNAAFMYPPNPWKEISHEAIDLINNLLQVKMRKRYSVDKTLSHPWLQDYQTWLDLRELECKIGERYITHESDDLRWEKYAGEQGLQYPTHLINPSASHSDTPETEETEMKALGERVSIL
RGS16-Gao: modulators of RGS16 binding to Galphao, primary screen, biochemical, human proteins, multiplexed bead flow cytometry; actives 0.38% (n = 220,000); Regulator of G-protein signaling 16 (Homo sapiens) + Guanine nucleotide-binding protein …; bead-based flow cytometry RGS16-Galphao binding, fluorescence; actives lie on both sides; binding response (% of control), % at 10 µM;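 active means below 25% or above 175%, edge rows of some plates excepted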;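 further: Galphao activated by GDP with aluminum fluoride before binding; 100% = wells without compound and 0% = beads without RGS; some results beyond the cut were filed as inactive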
HSV replic up: enhancers of HSV replication in host cells, fold increase, host cell viability; maximum fold increase; AID 1956, 2009; HSV replication augmentation in cells; actives 0.005% (n = 220,000);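 active means peak rise of 1.5-fold or more in the series; tested in PC3 cells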;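 further: first round at 10 µM; read as green reporter fluorescence; hits show the peak of a series up to 25 µM; 1 = signal of infected wells without compound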
INS promoter inh cell count: recorded beside INS promoter inh, whose call it bears; normalized cell count, %; measured here: cell count, toxicity; reference of the scale not given here;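 cells exposed to compound for 48 h; stained nuclei by imaging scaled within each plate; lower means fewer cells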
HSV replic up primary fold: further read-out of HSV replic up, marked with its call; fold increase; compound at 10 µM; measured here: primary screen fold increase 10 uM; tested in PC3 cells;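 GFP signal in the first replicate; 1 = infected wells without compound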
An asterisk follows results filed as active; i = inactive; · = not tested or not shown.

SMILES	INS promoter inh	INS promoter inh cell count	GALR2 agonist	PKD1 inh	RGS16-Gao	HSV replic up	HSV replic up primary fold
Fc1ccc(CN2CCN(c3ccc(Cl)cc3)CC2)cc1	-14	99	·	1	103	i	0.95
CCCCCCCn1c(=O)c(C(=O)Nc2cnccn2)c(O)c2ccccc21	·	·	·	·	94	i	0.97
CCCc1[nH]nc2c1C1(C(=O)N(Cc3ccccc3)c3ccccc31)C(C(=O)OC)=C(N)O2 (configuration not stated)	7	134	-0.2	-6	99	i	0.88
CN(C)S(=O)(=O)c1cc(NC(=O)COC(=O)Cc2ccccc2)ccc1Cl	50	99	0.3	5	42	i	0.71
COc1ccc(OCC(=O)Nc2ccc(Cl)cc2C(=O)c2ccccc2)cc1	-133	103	9.8	-6	100	i	1
CC(C)N1CCN(c2ccc(O)cc2)CC1	44	93	-1.7	-9	104	i	0.99
CCC(=O)N1CC(=O)Nc2ccc(Br)cc2C1c1ccccc1 (configuration not stated)	-50	87	·	3	100	i	0.97
O=c1[nH]c(=S)n(Cc2ccc(F)cc2)c(O)c1/C=N/N1CCCCC1	·	·	0.4	2	60	i	1.1
COc1nc2ccccc2c(=O)n1-c1ccc(Cl)cc1	-109	155	0.9	7	101	i	0.98
Cc1ccc(NC(=O)c2cn(CCC#N)nc2-c2ccc3c(c2)OCCO3)c([N+](=O)[O-])c1	·	·	-1.8	10	96	·	·
CC1CC(OC(=O)c2ccccc2)CC(C)N1C (configuration not stated)	-4	90	-2.2	-19	99	i	0.88
O=c1c2ccccc2nc(-c2cccs2)n1-c1cnccn1	0	71	-2.4	6	96	i	0.77
CN1OCC2Cn3c(nc4ccccc43)C21 (configuration not stated)	·	·	·	·	97	i	0.97
O=C(COc1ccc2ccccc2c1)N1CCN(C2CCN(Cc3ccccc3)CC2)CC1	7	155	0.8	5	99	i	0.76
Clc1cnc(Oc2ccc(Oc3ncc(Cl)cc3Cl)cc2)c(Cl)c1	3	61	-1.8	3	102	i	1
Cc1[nH]n(-c2ccccc2)c(=O)c1C(c1ccc([N+](=O)[O-])cc1)c1c(C)[nH]n(-c2ccccc2)c1=O	3	91	-2.3	11	100	i	0.89
Cc1oc(-c2ccccc2Cl)nc1CN1C(=O)CN=C(c2ccccc2)c2ccccc21	-51	88	-0.7	-11	114	·	·
Cc1ccc(CN2CC3CC(C2)c2cccc(=O)n2C3)cc1 (configuration not stated)	·	·	0.1	-3	102	·	·
Cc1sc2ncn(CC(=O)NCCCC(=O)N3CCC4(CC3)OCCO4)c(=O)c2c1C	-18	119	0.5	-3	91	i	0.89
CCc1ccccc1N1C(=O)/C(=C/c2ccc(N3CCN(C)CC3)o2)C(=O)NC1=S	-60	58	-0.2	-13	100	i	1.2
CNC(=O)N(C)c1ccc(C(O)(C(=O)OC)C(F)(F)F)cc1 (configuration not stated)	·	·	·	·	98	i	1.1
CC(C)OP(=O)(Oc1ccc(C(O)C(Cl)(Cl)Cl)cc1)OC(C)C (configuration not stated)	·	·	·	·	97	i	0.95
Cc1cc(/C=C2\C(=O)NC(=O)N(C)C2=O)c(C)n1-c1ccc2c(c1)OCO2	0	95	-2.2	-3	94	i	0.93
O=P(CCl)(Nc1ccccc1)C(Cl)(Cl)Cl (configuration not stated)	·	·	·	-1	101	i	0.99
Oc1ccc2c3c1O[C@H]1c4[nH]c5ccccc5c4C[C@@]4(O)C(C2)N(CC2CC2)CC[C@]314	·	·	·	·	94	i	0.78
New compounds follow:
SMILES	INS promoter inh	INS promoter inh cell count	GALR2 agonist	PKD1 inh	RGS16-Gao	HSV replic up	HSV replic up primary fold
Cc1cc(N2CCOCC2)nc2ccc(NC(=O)CCC(=O)N3CCC4(CC3)OCCO4)cc12	·	·	-2.1	1	98	·	·
Cn1cccc1CNCCc1ccccc1F	·	·	-0.4	-1	85	i	0.94
O=c1c2ccccc2nc(-c2ccoc2)n1-c1ccccc1Cl	59	239	-0.4	1	102	i	0.97
CC(=NCc1ccc2c(c1)OCO2)c1c(O)n(-c2ccc(C)cc2)c(=O)[nH]c1=O	·	·	·	·	97	i	0.98
COc1ccc(-c2cc(=Nc3cccc(C(=O)O)c3)c3cc(C)ccc3o2)cc1	9	88	·	-1	98	i	1
CC(NCC#Cc1ccccc1)C(O)c1ccccc1 (configuration not stated)	·	·	·	-3	103	i	0.92
CCC(=NCCCn1ccnc1)c1c(O)n(-c2ccc(OC)cc2)c(=O)[nH]c1=O	·	·	·	·	92	i	0.91
Cn1c(O)c(C=NCCc2c[nH]c3ccccc23)c(=O)n(C)c1=O	·	·	-0.8	5	103	i	0.92
CC(=O)[C@H]1CC[C@H]2[C@@H]3CC[C@H]4C[C@H](O)CC[C@]4(C)[C@H]3C(=O)C[C@]12C	19	83	0.5	1	109	i	0.61
CCCN1CC(C)C(OC(C)=O)(c2ccccc2)CC1C (configuration not stated)	53	86	-1.7	-6	114	i	0.89
CCN1C(=O)/C(=C/c2ccc(N(CC)CC)cc2OC)C(=O)NC1=S	·	·	·	-4	113	i	1.1
COc1ccccc1-n1c(O)c(C=NC2CC2)c(=O)[nH]c1=O	22	82	-2.5	-7	104	i	0.82
CCCC(=O)c1c(O)[nH]c(=O)[nH]c1=O	·	·	-1.8	5	101	i	0.97
CCOC(=O)Cc1csc(NC(=O)c2c(O)c3ccccc3n(CCC(C)C)c2=O)n1	-33	126	·	5	110	i	0.99
Cc1ccc(C(=O)NC(O)C(Cl)(Cl)Cl)cc1 (configuration not stated)	·	·	0.9	6	105	i	0.98
O=C(CCCC1=NS(=O)(=O)c2ccccc2N1)N1CCC2(CC1)OCCO2	20	120	0.3	-13	101	i	0.97
CSc1ncc(/C=C2/C(=O)NC(=O)N(c3ccc(Cl)cc3)C2=O)cn1	-260	54	·	1	42	i	1.1
OC(CNCCc1c[nH]c2ccccc12)C(F)(F)F (configuration not stated)	·	·	·	-4	100	i	1.1
Cc1nn(C)c(C)c1P(=S)(c1c(C)nn(C)c1C)N(C)C	·	·	-1.7	-18	97	i	1
O=C1NC(=O)N(CC2CCCO2)C(=O)/C1=C/c1cccs1 (configuration not stated)	·	·	·	·	160	i	0.92
CCN(CC(=O)Nc1ccc(C#N)c(Cl)c1)CC(=O)NC(C)(C)C	44	129	·	2	98	i	0.86
C=CCn1c(O)c(C(C)=NCCCn2ccnc2)c(=O)[nH]c1=O	·	·	·	·	96	i	0.9
CCOC(=O)C1=C(N)OC2=C(C(=O)CC(C)(C)C2)C12C(=O)Nc1ccccc12 (configuration not stated)	·	·	-1.8	-16	64	i	0.97
CN1CC(C(=O)c2ccccc2)C(C(=O)c2ccccc2)C1 (configuration not stated)	·	·	-2.5	-8	106	i	1
CC(C)CCNC(=O)c1cc(C(=O)c2cc(F)ccc2O)cn(CCC(C)C)c1=O	39	150	·	8	102	i	0.96
The list goes on:
SMILES	INS promoter inh	INS promoter inh cell count	GALR2 agonist	PKD1 inh	RGS16-Gao	HSV replic up	HSV replic up primary fold
CC(C)Sc1nnc([C@@H](N)Cc2c[nH]c3ccccc23)o1	6	70	-2.3	7	109	i	0.77
O=c1[nH]c(=S)[nH]c(O)c1N=Nc1cc2c(cc1[N+](=O)[O-])OCO2	·	·	·	-6	95	i	0.88
O=[N+]([O-])c1ccc(N2CCOCC2)c2ccncc12	33	46	·	0	22	i	0.95
COc1ccc(CCNCc2ccc(OC)c(OC)c2OC)cc1	-16	116	-0.6	-9	100	i	1.1
Cc1nn(Cc2ccc(Cl)cc2Cl)c(Cl)c1C(=O)NC1CCCc2ccccc21 (configuration not stated)	-60	101	-0.6	0	96	i	0.94
COc1cc2c(cc1OC)-c1c(OC)c(OC)cc3c1[C@H](C2)N(C)CC3	14	127	-0.8	-10	104	i	0.65
CCCCn1c(O)c(C(C)=Nc2cccc(C(=O)O)c2)c(=O)[nH]c1=O	-8	44	1.3	-12	82	i	0.8
CCC(C)n1c(O)c(C=NCC2CCCO2)c(=O)[nH]c1=S (configuration not stated)	·	·	·	·	96	i	1
Cc1ccc(Cn2nnnc2CN2CCC(n3nnc4cc(C)ccc43)CC2)cc1	-18	99	-0.9	-9	102	i	0.89
O=P(Oc1ccccc1)(Oc1ccccc1)N1CCN(c2ccc(F)cc2)CC1	·	·	·	·	96	i	0.94
COC(=O)[C@@]1(C#N)[C@@H]2C=CC(C(C)=O)=CN2[C@@H](C(N)=O)[C@@H]1c1ccc(F)cc1	·	·	·	·	95	i	1.1
CCCCCCN=Cc1c(O)n(C)c(=O)n(C)c1=O	40	94	-0.4	-3	100	i	0.9
CCOC(=O)N(C)c1ccc(C(O)(C(=O)OC)C(F)(F)F)cc1 (configuration not stated)	58	121	-0.9	-7	108	i	1
CC(O)(CS(=O)(=O)c1ccccc1)C(=O)Nc1ccc(C(F)(F)F)cc1 (configuration not stated)	12	63	-1.4	-8	45	i	0.88
CCCS(=O)(=O)N1CCC(C(=O)N2CCC3(CC2)OCCO3)CC1	·	·	-2.5	-11	101	i	0.95
O=C(O)c1nonc1-c1nonc1C(=O)O	-22	97	-0.6	17	101	i	0.85
COc1ccc(CNC(C)Cc2cccs2)cc1 (configuration not stated)	·	·	·	2	105	i	0.93
COc1ccccc1-n1c(O)c(/C=N/NC(=S)Nc2ccccc2)c(=O)[nH]c1=S	·	·	·	·	103	i	1
CCOC(=O)c1c(C)n(Cc2ccc(F)cc2)c2ccc(O)cc12	·	·	·	·	97	i	0.9
CC#CP(=O)(OCC)C(O)(c1ccccc1)C(F)(F)F (configuration not stated)	-23	137	-1.3	2	99	i	0.97

Pulled by compound from the entries so far, 4 records:
SMILES	INS promoter inh	INS promoter inh cell count	GALR2 agonist	PKD1 inh	RGS16-Gao	HSV replic up	HSV replic up primary fold
COc1ccccc1-n1c(O)c(/C=N/NC(=S)Nc2ccccc2)c(=O)[nH]c1=S	·	·	·	·	103	i	1
CC(C)Sc1nnc([C@@H](N)Cc2c[nH]c3ccccc23)o1	6	70	-2.3	7	109	i	0.77
CC#CP(=O)(OCC)C(O)(c1ccccc1)C(F)(F)F (configuration not stated)	-23	137	-1.3	2	99	i	0.97
Cc1ccc(Cn2nnnc2CN2CCC(n3nnc4cc(C)ccc43)CC2)cc1	-18	99	-0.9	-9	102	i	0.89

Of the compounds above, 2 contain an aryl thioether with sulfur outside any ring:
SMILES	INS promoter inh	INS promoter inh cell count	GALR2 agonist	PKD1 inh	RGS16-Gao	HSV replic up	HSV replic up primary fold
CSc1ncc(/C=C2/C(=O)NC(=O)N(c3ccc(Cl)cc3)C2=O)cn1	-260	54	·	1	42	i	1.1
CC(C)Sc1nnc([C@@H](N)Cc2c[nH]c3ccccc23)o1	6	70	-2.3	7	109	i	0.77

4 structures from above, arranged by SMILES length, lowest first:
SMILES	INS promoter inh	INS promoter inh cell count	GALR2 agonist	PKD1 inh	RGS16-Gao	HSV replic up	HSV replic up primary fold
COc1ccc(CCNCc2ccc(OC)c(OC)c2OC)cc1	-16	116	-0.6	-9	100	i	1.1
CCC(C)n1c(O)c(C=NCC2CCCO2)c(=O)[nH]c1=S (configuration not stated)	·	·	·	·	96	i	1
Cc1ccc(Cn2nnnc2CN2CCC(n3nnc4cc(C)ccc43)CC2)cc1	-18	99	-0.9	-9	102	i	0.89
CC(O)(CS(=O)(=O)c1ccccc1)C(=O)Nc1ccc(C(F)(F)F)cc1 (configuration not stated)	12	63	-1.4	-8	45	i	0.88

Screens as filed in PubChem BioAssay.

This is a subset; the hit share may differ from the screen's.
